Rango dissoc inh: qHTS Assay for Inhibitors of RanGTP induced Rango (Ran-regulated importin-beta cargo) - Importin beta complex dissociation. Snurportin-1 (Homo sapiens) + GTP-binding nuclear protein Ran (Homo sapiens) + Importin …. Biochemical FRET Rango-importin beta, RanGTP-induced dissociation. Potency, µM (titrated, usually from 46.1 µM), inactives show at the top dose activity change, negative = inhibition. 340,000 compounds, 0.071% hits. AID 540253, 2011; active means falling FRET ratio curve, often poorly fitted, with flat reads before Ran was added; inconclusive means other falling curves, or compound fluorescence or quenching; inactive means flat or rising ratio curve;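 note: potency is the fitted concentration of half-maximal effect; % of control where 0% means no effect; nearly all actives have a fitted effect of over 45% in size; -100% = wells without RanGTP and RCC1; the record marks most hits as doubtful in a second field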
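Compounds preincubate 5 min with complex of recombinant Rango and importin beta in PBS with 1 mM DTT. Ran (0.6 uM) loaded with 2 mM GTP plus 0.2 uM RCC1 starts dissociation; FRET is recorded 45 min later.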
Rango complex inh: qHTS Assay for Inhibitors of Rango (Ran-regulated importin-beta cargo) - Importin beta complex formation; Potency, µM (titrated, usually from 92.2 µM), inactives show at the highest dose inhibition of complex formation; 340,000 compounds, 0.031% hits; Rango CFP/YFP FRET sensor + importin beta, 45 min; active = rising FRET ratio curve, often small or poorly fitted; inconclusive = mostly compound fluorescence or quenching in the first reads; inactive = flat curves in all reads;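 note: potency is the fitted concentration of half-maximal effect; 0% = DMSO wells and 100% = buffer wells lacking importin beta; nearly all actives have a fitted effect of over 15% in size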
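FRET biosensor (snurportin 1 IBB flanked by EYFP and cerulean), 50 nM, with compound 5 min, then 0.125 microM importin beta in PBS, 1 mM DTT, 0.02% Tween-20, 0.1% BSA. CFP/YFP ratio read after 45 min at room temperature; pre-read flags interference.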
GLA inh pH 4.5: qHTS Assay for Inhibitors of Human alpha-Galactosidase at pH 4.5; Alpha-galactosidase A (Homo sapiens), P06280; purified enzyme, 4-MU-alpha-Gal fluorescence, pH 4.5; activity change, negative = inhibition, % at 105 µM; 230,000 tested, under 10 active; AID 1467, 2008; inconclusive = small, poorly fitted or top-dose-only inhibition, or a rising curve; inactive = flat fitted curve, though single readings scatter; no compound was filed as active;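 note: 0% = full activity with enzyme and -100% = basal without enzyme; dose as in the result columns while the protocol names 77 µM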
Target sequence (P06280 whole entry, looked up): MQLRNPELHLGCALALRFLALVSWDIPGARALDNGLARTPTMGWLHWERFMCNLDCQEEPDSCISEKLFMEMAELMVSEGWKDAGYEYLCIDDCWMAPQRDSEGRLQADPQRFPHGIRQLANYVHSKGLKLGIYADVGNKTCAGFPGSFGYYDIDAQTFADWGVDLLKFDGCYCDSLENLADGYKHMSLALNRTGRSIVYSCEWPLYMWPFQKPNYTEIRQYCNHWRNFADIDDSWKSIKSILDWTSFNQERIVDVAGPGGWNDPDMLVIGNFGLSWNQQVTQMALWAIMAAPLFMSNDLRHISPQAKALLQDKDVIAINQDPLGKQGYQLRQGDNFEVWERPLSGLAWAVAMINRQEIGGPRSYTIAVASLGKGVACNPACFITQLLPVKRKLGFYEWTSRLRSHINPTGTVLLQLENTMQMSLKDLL
miR-21 reporter: qHTS Assay for Modulators of miRNAs and/orActivators of miR-21; Potency, µM (top dose mostly 38.3 µM), inactives show at the highest dose reporter change, positive = more light; 340,000 tested, under 10 active; AID 2288, 2010; HeLa miR-21 FLuc reporter, luciferase, 48 h; active = well fitted rising curve with a large enough effect; inconclusive = small, poorly fitted or top-dose-only effect; inactive = no such curve, though single readings can be large or run the other way;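 note: % of control where 0% means no effect; miR-21 action dims this reporter so a rising signal means less miR-21 action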
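Using DMEM plus 10% FBS, HeLa miR-21-FLuc cells are incubated with test compounds (final up to about 40uM) for 48 hours; firefly luciferase signal is then imaged following reagent-mediated lysis.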
* hit, by the source's call; ? = inconclusive; nt = no result given. Only part of the results is shown; the hit share may differ from the screen's.

Molecule	GLA inh pH 4.5	miR-21 reporter	Rango complex inh	Rango dissoc inh
CCOc1ccc(S(=O)(=O)Nc2ccc3c(c2)OCO3)c2cccnc12	-3	-27%	-3.9%	-12%
CN(c1ccccc1)c1nc(N)c([N+](=O)[O-])c(N2CCCCC2)n1	3	-56%	0.9%	4%
Cn1c(=O)c2cc(S(=O)(=O)NC(Cc3ccccc3)C(=O)NCc3ccco3)ccc2n(C)c1=O (stereo not drawn)	-8	-1%	-2.9%	-11%
O=C(COc1ccc2ccc(=O)oc2c1)N1CC[C@@]2(O)CCCC[C@H]2C1	nt	-2%	4.0%	10%
CCCc1[nH]nc2c1C(c1ccc(OC)c(CSC3=NCCS3)c1)C(C#N)=C(N)O2 (stereo not drawn)	3	-3%	-0.2%	8%
O=[N+]([O-])c1ccc(-c2nc(Nc3cccc(O)c3)c3ccccc3n2)cc1	nt	?	2.5%	0%
Cc1ccccc1C(=O)NNC(=O)C(C)N1C(=O)c2ccccc2C1=O (stereo not drawn)	4	-6%	2.2%	11%
CCOc1ccc(OCC)c(NC(=O)CSc2nc3c(c(=O)n(C)c(=O)n3C)n2C)c1	-1	-4%	nt	nt

Additional results follow:
Molecule	GLA inh pH 4.5	miR-21 reporter	Rango complex inh	Rango dissoc inh
O=S(=O)(c1ccc(Br)s1)N1CCC(Cc2ccccc2)CC1	-3	-3%	-5.4%	-1%
C/C(=N/NC(=O)c1ccoc1C)c1ccc(NC(=O)c2ccncc2)cc1	8	-50%	1.8%	-11%
COc1ccc(N(CC(=O)NCc2ccc(C)cc2)S(=O)(=O)c2ccccc2[N+](=O)[O-])c(OC)c1	-2	1%	4.5%	22%
Cc1ccccc1-n1c(C)nnc1SCC(=O)NC1CCCc2ccccc21 (stereo not drawn)	7	-8%	-3.9%	12%
CC(C)NC(=O)C(Cc1ccccc1)N1C(=O)c2ccccc2C1=O (stereo not drawn)	4	-8%	3.8%	-6%
O=C(COC(=O)c1cnccn1)c1ccc2ccccc2c1	0	-4%	2.6%	1%
CCOc1ccc(NS(=O)(=O)c2ccc(C(=O)N(C)CC(=O)Nc3ccccc3Br)cc2)cc1	nt	nt	0.5%	26%
Cc1nc(SCC(=O)N2c3ccccc3NC(=O)CC2C)c2c(C)c(C)sc2n1 (stereo not drawn)	nt	nt	3.7%	38%

Carrying on.
Molecule	GLA inh pH 4.5	miR-21 reporter	Rango complex inh	Rango dissoc inh
COc1ccc(CNC(=O)c2c(-c3c(F)cccc3Cl)noc2C)cc1	nt	2%	-0.7%	8%
COc1ccc(NC(=O)CCS(=O)(=O)c2ccc(Br)s2)cc1	nt	-3%	6.3%	6%
COC(=O)C/C=C/[C@@H](C)[C@@H](/C=N/OCC[C@@H]1C=C[C@H](OC(C)=O)[C@@H](COC(C)=O)O1)NS(=O)(=O)c1ccc(C)cc1	0	-5%	nt	nt
CC(C)(C)NC(=O)c1cccc(NC(=O)c2ccco2)c1	-9	-23%	-1.1%	0%
NC(=O)C1CCN(Cc2nc3cc(C(F)(F)F)ccc3c(=O)[nH]2)CC1	-5	-4%	0.0%	17%
O=C(O)c1ccccc1C=NN=C1c2ccccc2-c2ccccc21	nt	nt	-2.2%	-5%
CCOc1cc(C(=O)NC)cc(Br)c1OCc1ccccc1	0	6%	-0.9%	1%
O=C1N(Cc2cccc(Cl)c2)C[C@@H]2C[C@@H](c3cccn3-c3cccnc3)N3CCC[C@@]123	-2	25%	-4.8%	7%

Other entries follow:
Molecule	GLA inh pH 4.5	miR-21 reporter	Rango complex inh	Rango dissoc inh
NC(=O)COC(=O)/C=C/c1cccc(Br)c1	6	1%	?	0%
CN1CCN(C(=O)Cn2ncc3c([nH]c4ccccc43)c2=O)CC1	nt	1%	0.8%	3%
COc1ccccc1-n1c(C)c2c(OC)cccc(=O)c2c1C	-22	-10%	?	?
Cc1ccc(CNC(=O)CSc2ccc(-c3ccccn3)nn2)cc1	-17	-1%	0.6%	16%
CCn1nc(C)c(CN2CCC(n3nccc3NC(=O)CCCc3ccccc3)CC2)c1C	nt	0%	3.5%	-10%
O=C1c2ccccc2C(=O)N1c1nc(-c2cccs2)cs1	-2	-2%	0.2%	-12%
N/C(=N\OC(=O)N1c2ccccc2Sc2ccccc21)c1ccc(Br)cc1	-3	-2%	0.5%	-1%
O=C(CCSc1ccccc1)Nc1ccc(S(=O)(=O)N2CCOCC2)cc1	-4	-4%	-2.3%	2%

Three entries already listed, sorted by molecular weight, smallest number first:
Molecule	GLA inh pH 4.5	miR-21 reporter	Rango complex inh	Rango dissoc inh
COc1ccccc1-n1c(C)c2c(OC)cccc(=O)c2c1C	-22	-10%	?	?
Cc1ccc(CNC(=O)CSc2ccc(-c3ccccn3)nn2)cc1	-17	-1%	0.6%	16%
CCn1nc(C)c(CN2CCC(n3nccc3NC(=O)CCCc3ccccc3)CC2)c1C	nt	0%	3.5%	-10%

Other records
Molecule	GLA inh pH 4.5	miR-21 reporter	Rango complex inh	Rango dissoc inh
Fc1cccc(NC(=S)Nc2cccc3ccccc23)c1	nt	3%	-1.9%	7%
COc1ccc(-c2nc(CSCC(=O)NCCCN3CCCC3=O)c(C)o2)cc1	nt	5%	-2.7%	3%
CN1CCN(c2cc3c(cc2F)c(=O)c(C(=O)O)cn3CCF)CC1	-3	0%	0.6%	-1%
O=C(C1CCN(c2ccc(N3CCOCC3)nn2)CC1)N1CCc2ccccc2C1	-4	-8%	?	-19%
Cc1c(NS(=O)(=O)c2cc(C(=O)NCc3ccco3)cc(Cl)c2Cl)c(=O)n(-c2ccccc2)n1C	nt	nt	-0.2%	13%
Cc1ccccc1Nc1ccc(S(=O)(=O)N2CCOCC2)cc1[N+](=O)[O-]	10	-3%	1.3%	-4%
CCN(CC)c1nc2cc(C)ccc2cc1/C=C(\C#N)C(N)=O	-4	-22%	?	?
Cc1cnc(NC(=O)Cc2ccc(C)c(C)c2)s1	nt	-14%	-1.8%	0%

(more compounds)
Molecule	GLA inh pH 4.5	miR-21 reporter	Rango complex inh	Rango dissoc inh
NC(=O)[C@H](Cc1cc2ccccc2s1)NC(=O)[C@@H]1CC2(CC(c3cccc(NC(=O)[C@@H]4CCC(=O)N4)c3)=NO2)CN1C(=O)/C=C/Sc1ccccc1 (stereo partly drawn)	-8	-5%	-1.4%	1%
O=C(COc1ccc([N+](=O)[O-])cc1)NCCC1=CCCCC1	-1	-1%	2.2%	-6%
CCCS(=O)(=O)N1CCN(S(=O)(=O)c2ccccc2[N+](=O)[O-])CC1	11	-1%	1.5%	-11%
O=C(CSc1nnc(CNC(=O)c2ccco2)o1)c1ccccc1	-3	1%	-1.9%	-12%
CC(N)C12CC3CC(CC(O)(C3)C1)C2 (stereo not drawn)	1	-7%	6.2%	-8%
O=C(NCc1nnnn1-c1ccc(F)cc1)c1ccc([N+](=O)[O-])o1	nt	nt	-2.5%	-4%
COC(=O)c1ccc(C2/C(=C(/O)c3ccc(OC)cc3)C(=O)C(=O)N2c2cc(C)on2)cc1 (stereo not drawn)	-6	-7%	0.3%	1%
CC(C)(C)c1cc(S(=O)(=O)CCc2ccncc2)cc(C(C)(C)C)c1F	nt	-7%	-1.3%	2%

Continued.
Molecule	GLA inh pH 4.5	miR-21 reporter	Rango complex inh	Rango dissoc inh
COc1ccc(-c2cc(C(F)(F)F)nc(SCC(=O)N(C)Cc3cnn(C)c3C)n2)cc1OC	-4	-6%	?	-8%
COc1cc(-c2c(-c3cccc(C)c3)oc3ccccc23)cc(OC)c1OC	nt	5%	3.7%	-5%
Cc1nc2ccc(C(=O)O)cc2nc1C	4	-8%	-1.1%	7%
CCCCCn1c(NC2CCCCC2)nc2c1c(=O)[nH]c(=O)n2C	-4	-9%	-4.7%	-20%
CN(C)S(=O)(=O)c1cccc(NC(=O)CSc2nc3ccccc3n2-c2ccccc2)c1	-16	12%	0.4%	1%
CCSc1nnc(NC(=O)CSc2nc3c(c(=O)n2CC)SC(C)C3)s1 (stereo not drawn)	-2	3%	5.1%	-1%
Cc1c(OCc2ccccc2)c(=O)ccn1Cc1ccccc1	6	-4%	1.4%	1%
Cc1cccc(OCCCSc2nc3ccccc3[nH]2)c1	-15	-3%	1.0%	-14%

Going on with the list:
Molecule	GLA inh pH 4.5	miR-21 reporter	Rango complex inh	Rango dissoc inh
Cc1ccc(C(=O)Nc2ccc3c4c(cccc24)CC3)cc1[N+](=O)[O-]	-3	-5%	-1.5%	1%
COCc1cc(CN(C)C(=O)C2CCC(=O)N(Cc3cccc(OC)c3)C2)[nH]n1 (stereo not drawn)	nt	3%	1.9%	11%
COc1ccc(CCNC(=O)/C=C/c2cc(OC)c(OC)c(OC)c2)cc1OC	1	-5%	2.5%	-12%
N#C/C(=C\c1ccc(N2CCOCC2)o1)c1ccccc1	-8	?	?	?
S=c1[nH]nc(-c2ccncc2)n1/N=C/c1cccc(Cl)c1	-2	0%	-0.1%	-9%
Cc1[nH]n(-c2ccccc2)c(=O)c1Sc1ccc(Cl)cc1	-2	0%	-1.3%	0%
COc1ccc(C(=O)Nc2nc(-c3ccc(OC)cc3)c(-c3ccc([N+](=O)[O-])cc3)s2)cc1	-4	1%	?	-2%
COc1cc(NS(=O)(=O)c2ccc(NC(=O)c3ccco3)cc2)nc(OC)n1	-6	-5%	3.4%	3%

Following part.
Molecule	GLA inh pH 4.5	miR-21 reporter	Rango complex inh	Rango dissoc inh
COC(=O)c1ccc(Cl)c(NC(C)=O)c1	3	0%	1.5%	17%
CCOC(=O)C1=CN(Cc2cccc(F)c2)S(=O)(=O)N(CC)C1c1ccc2ccccc2c1 (stereo not drawn)	nt	nt	-4.7%	25%
c1ccc(-c2ccc(SCc3cccnc3)nn2)nc1	0	-36%	1.5%	-13%
Cc1ccc(Nc2nnc(SCC(=O)NCC3CCCO3)s2)cc1 (stereo not drawn)	nt	nt	-4.8%	29%
COc1ccc(-c2sc(Nc3ccccc3)n[n+]2-c2ccccc2)cc1Br	nt	nt	0.4%	-1%
O=C(CN(Cc1cccs1)C(=O)CNC(=O)c1ccco1)NC1CCCCC1	-1	2%	-0.9%	15%
Cc1ccc(S(=O)(=O)NC(CC(=O)O)c2ccccc2)cc1 (stereo not drawn)	-3	-6%	3.1%	0%
CCN(CC(=O)N1CCCC1)S(=O)(=O)c1ccccc1	nt	-6%	0.1%	9%
CC1(C)CC(=O)C=C(c2ccc3ncccc3c2)C1	nt	nt	3.3%	1%
C[C@]12c3[nH]c4ccc(Cl)cc4c3CCN1C(=O)[C@@H](CC(=O)NCCCn1ccnc1)C[C@@H]2C(=O)N1CCOCC1	nt	nt	-1.9%	-13%
O=C(O)CC1=C(Nc2ccccc2)C(=O)N(c2ccccc2)C1c1ccc(F)cc1 (stereo not drawn)	7	-40%	0.1%	-17%

Grouped by structure, the compounds so far with bromine (7)
Molecule	GLA inh pH 4.5	miR-21 reporter	Rango complex inh	Rango dissoc inh
O=S(=O)(c1ccc(Br)s1)N1CCC(Cc2ccccc2)CC1	-3	-3%	-5.4%	-1%
CCOc1ccc(NS(=O)(=O)c2ccc(C(=O)N(C)CC(=O)Nc3ccccc3Br)cc2)cc1	nt	nt	0.5%	26%
COc1ccc(NC(=O)CCS(=O)(=O)c2ccc(Br)s2)cc1	nt	-3%	6.3%	6%
CCOc1cc(C(=O)NC)cc(Br)c1OCc1ccccc1	0	6%	-0.9%	1%
NC(=O)COC(=O)/C=C/c1cccc(Br)c1	6	1%	?	0%
N/C(=N\OC(=O)N1c2ccccc2Sc2ccccc21)c1ccc(Br)cc1	-3	-2%	0.5%	-1%
COc1ccc(-c2sc(Nc3ccccc3)n[n+]2-c2ccccc2)cc1Br	nt	nt	0.4%	-1%
